Screening results as filed in PubChem BioAssay.
Bfl-1 A1 inh: inhibitors of the anti-apoptotic protein A1, read as caspase activation; 330,000 tested, 0.066% active; AID 2462; caspase activation, % (concentration not given with the values); MEF A1-2A-BIM cells, Caspase-Glo 3/7 luminescence, 3 h; percent of clofoctol response, vehicle zero;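 active means over half of replicate activation scores above 10%, or exactly half above 10 with the replicate mean above 10; inconclusive means replicate mean below 10 yet half the replicates above 10; inactive means over half of replicates below 10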;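 further: wells of about 30 µL received 50 nL stock; many hits fall short of the cut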
T cruzi inh: blocks replication of Trypanosoma cruzi. AID 1885. inhibition, % (no concentration beside the values). T. cruzi beta-gal in NIH3T3, luminescence, 90 h. 300,000 tested, 1.4% active;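 active means mean inhibition across valid replicates above about 55%, limit read from the data; inconclusive means mean below that limit but half or more replicates reach it; inactive means mean below it, under half of replicates reach it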;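 further: signal also drops with host cell toxicity which is not excluded here; 0% = plate median of DMSO wells and 100% = zero luminescence signal; higher percent means less beta-gal luminescence so fewer parasites; stock transfer was 50 nL into about 50 µL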
Vif TR-FRET: HIV-1 Vif–A3G interaction blockers – biochemical, TR-FRET, GST-Vif 1-94, biotin-A3G peptide, dose response retest, primary screen (AID 1117319). TR-FRET GST-Vif / biotin-A3G peptide binding; higher % means a stronger effect; test concentration not given here; strong numbers were not always called active. inhibition, %, or IC50 in µM where a hit was titrated. 260,000 tested, 0.57% active;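 active means above the screen mean plus three standard deviations and confirmed in dose response; inconclusive means results disagree or hit not tested in dose response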;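 further: Vif residues 1-94 fused to GST binding biotinylated APOBEC3G peptide 110-148; 0% = full assay without inhibitor and 100% = GST in place of GST-Vif; retest series ran down from 100 µM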
RanGTP-Impb inh: disruptors of Ran-importin-beta complex formation – biochemical, FRET, CFP-Ran, YFP-importin-beta, homogeneous, primary screen | cell-free CFP-Ran/YFP-importin-beta FRET ratio | inhibition, % (test concentration not listed) | 300,000 tested, 1.1% active;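 active means most replicates above 15%; inconclusive means exactly half above 15%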;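 further: 0% = DMSO wells and 100% = Ran loaded with GDP instead of GTP; wells of about 40 µL received 100 nL stock; the first replicate is given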
AF4-AF9 inh: blocks AF4 peptide binding to human AF9. AID 651704. AlphaScreen, biotin-AF4 peptide binding to FLAG-AF9. inhibition, % at 10 µM. 350,000 tested, 0.47% active. P42568;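 active means every replicate reaching a set inhibition limit, whatever the replicate mean, cut at about 25% in these data; inconclusive means mean inhibition reaches that limit but some replicates miss it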;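 further: 0% = plate neutral control median and 100% = total signal loss; the record names both 10 and 1 µM as test concentration; the first replicate is given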
Target sequence (P42568 whole entry, looked up): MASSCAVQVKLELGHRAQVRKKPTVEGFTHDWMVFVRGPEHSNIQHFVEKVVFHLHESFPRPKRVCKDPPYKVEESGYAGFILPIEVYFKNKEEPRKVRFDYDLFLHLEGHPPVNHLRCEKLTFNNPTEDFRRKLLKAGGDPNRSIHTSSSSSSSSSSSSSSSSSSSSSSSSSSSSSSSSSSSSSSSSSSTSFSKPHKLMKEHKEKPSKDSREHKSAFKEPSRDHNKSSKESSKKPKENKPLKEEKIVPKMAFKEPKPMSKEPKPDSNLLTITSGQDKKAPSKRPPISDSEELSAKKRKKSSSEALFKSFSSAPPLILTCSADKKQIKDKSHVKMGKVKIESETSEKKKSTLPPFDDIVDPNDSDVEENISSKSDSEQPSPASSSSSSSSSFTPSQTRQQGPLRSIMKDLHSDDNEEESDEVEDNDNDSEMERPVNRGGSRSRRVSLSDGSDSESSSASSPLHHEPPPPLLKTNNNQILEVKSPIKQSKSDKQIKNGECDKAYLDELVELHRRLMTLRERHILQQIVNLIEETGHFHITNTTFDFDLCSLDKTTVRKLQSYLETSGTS
rRNA inh HTS: selective bacterial rRNA inhibition in E. coli; E. coli WT GFP vs humanized-ribosome RFP mutants, fluorescence, 24 h; hits give low values; DMSO median 0, no signal -100; GFP signal change (wild-type ribosome), % (no concentration beside the values); 350,000 tested, 1.6% active; AID 720706;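 active means significant combined selectivity score with lowered wild-type GFP, culture density cut under 30%, mutant RFP and density less affected; inactive means any of these conditions unmet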; further: one replicate is shown; some compounds called inactive have numbers as strong as hits
Calb FLC: C. albicans growth modulation with fluconazole. growth inhibition, % (no concentration beside the values). AID 1979. C. albicans CaCi-2 (fluconazole-resistant clinical isolate) + fluconazole, Alamar Blue growth, 48 h. 300,000 tested, 0.57% active;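 active means most replicates above 75%; inconclusive means exactly half above 75%; inactive means most below 75%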;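 further: all wells also contain fluconazole at 8 µg/ml as a sub-toxic cotreatment; 0% = median of DMSO wells and 100% = median of geldanamycin control wells; wells of about 8 µL received 7.5 nL stock; the first replicate is given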
Beta cell apopt: blocks beta cell apoptosis; INS-1E cytokine-induced death, ATP luminescence, 48 h; percent of positive-control rescue, neutral wells zero; protection from apoptosis, % (no concentration beside the values); 300,000 tested, 0.8% active; AID 435005;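 active means all replicates at 75% or more, or half of them and the mean; inconclusive means half reach 75% but not the mean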;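 further: 0% = cytokine-treated negative control wells and 100% = positive control rescue; higher means more ATP so stronger rescue from cytokine killing; wells of about 40 µL received 100 nL stock; the first replicate is given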
rRNA inh HTS OD600: also measured in rRNA inh HTS; calls as there; OD600 change, %; measured here: OD600 growth;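 optical density of the mix in the first replicate; 0 = DMSO median and -100 = no signal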
rRNA inh HTS RFP: further read-out of rRNA inh HTS, marked with its call; RFP signal change, %; measured here: RFP humanized mutant strains;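 first replicate; 0 = DMSO median and -100 = no signal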
* marks the source's active call; other numbers are inactive results; ? = inconclusive; . = not tested or not shown; & = joins results of further samples. These rows are one share of the data; the hit share may differ from the screen's.

SMILES	Bfl-1 A1 inh	T cruzi inh	Vif TR-FRET	RanGTP-Impb inh	AF4-AF9 inh	rRNA inh HTS	rRNA inh HTS OD600	rRNA inh HTS RFP	Calb FLC	Beta cell apopt
O=S1(=O)C=C(SCCN2CCCCC2)c2ccccc21	0.2	13	22%	1.2	.	.	.	.	5	-5
COc1cc2ccccc2cc1C(=O)Nc1ccc(C)cc1	-0.2	-4	.	-2.8	-2.4	-7	2	1.8	20	3
CCc1nn(C(C)C(=O)N2CCN(c3ccc(OC)cc3)CC2)c(=O)c2cc3occc3n12 (centres undefined)	-1.4	-4	.	3.8	2.6	-1	-8	1.7	-9	5
O=C(Nc1ccnn1C1CCN(Cc2ccccc2OC(F)F)CC1)c1cccnc1	0.0	6	.	4.5	0.8	7	6	-2.8	-9	-1
O=C(Nc1ccncc1)C1CC1c1ccccc1 (centres undefined)	0.3	-13	-3%	-0.9	.	.	.	.	11	9
COc1ccc(C2=Nc3nc(-c4ccccc4)cn3C(c3ccc(OC)cc3)C2)cc1 (centres undefined)	.	30	.	28*	-5.3	6	2	-2.5	39	.
O=C(O)c1cccc(NC(=O)c2cccc(S(=O)(=O)Nc3cccc([N+](=O)[O-])c3)c2)c1	-4.7	0	.	?	-15	3	11	-2.5	3	-2
CC(O)c1nc2ccccc2n1Cc1ccccc1 (centres undefined)	-0.4	-24	.	-2.8	2.0	2	-1	0.9	0	-2
Cc1ccc([N+](=O)[O-])cc1N=C1C(=O)Nc2ccccc21	0.7	-5	6%	6.8	0.1	0	7	-3.1	-6	1
COc1ccc2nc(SCC(=O)Nc3ccccc3OC)[nH]c2c1	1.3	4	.	2.5	2.9	-24*	-12*	-0.6*	5	-8
O=S1(=O)CCC(=Nc2ccc(Cl)cc2)c2ccsc21	0.2	-10	-1%	-0.6	-0.3	16	14	-0.6	-13	0
Cc1cccc(NC(=O)NCc2cccnc2)c1C	0.9	-10	7%	-0.8	-1.4	7	9	-2.0	-6	0
COc1ccc(S(=O)(=O)N2CCN(C(=O)NCc3ccc(C)cc3)CC2)cc1	1.2	-8	-10%	2.6	-1.4	-6	-4	5.9	-6	-6
CCCc1nnc(NC(=O)CCC(=O)N2CCN(CCn3c(C)ccc3C)CC2)s1	1.7	-19	0%	-0.7	.	.	.	.	-1	1
Cc1ccc(/C=C(/C#N)C(=O)NC(C)c2ccccc2)o1 (centres undefined)	-0.7	2	.	0.5	-3.8	0	0	-1.6	-11	1
CC(=O)N1c2ccc(S(=O)(=O)NCCC(=O)NCc3ccc(Cl)cc3)cc2CC1C (centres undefined)	1.3	13	.	-0.5	1.5	2	4	-2.4	-4	4
COc1cc(C(=O)N2CCN(c3ccccn3)CC2)cc(OC)c1OC	-0.4	-4	-8%	0.0	3.4	-2	4	0.1	-1	1
c1ccc(CSc2ccc(-c3ccco3)nn2)cc1	0.8	-5	.	0.7	.	.	.	.	12	-3
CN(Cc1ccccc1)C(=O)N[C@@H](Cc1ccccc1)C(=O)O	0.6	-3	16%	0.3	.	.	.	.	-6	1
COc1ccccc1NC1=NC(CO)(CO)CS1	-0.6	-19	-11%	-2.3	3.6	8	6	3.9	-2	3
Cc1ccccc1/[N+]([O-])=C/c1cccs1	0.5	-2	-3%	-0.9	-0.1	14	-1	2.0	-11	1
Cc1cc(NS(=O)(=O)c2ccc(NC(=O)CN3C(=O)NC(C)(c4ccccc4)C3=O)cc2)nc(C)n1 (centres undefined)	0.2	4	1%	-1.0	-8.1	13	13	-0.6	-3	-1
O=C(CN1CCN(Cc2ccc3c(c2)OCO3)CC1)NCC(F)(F)F	-1.1	0	?	-0.2	-12	3	5	-0.6	0	-1
CCc1nnc(NC(=O)CSc2nc3cc(OC)c(OC)cc3cc2C)s1	0.3	-4	0%	7.0	-4.4	9	11	-2.1	1	4
Cc1ccnc(NC(=O)COc2ccc3c(c2)CCC3)c1	1.0	-10	-3%	3.0	-0.3	3	12	0.7	-12	.
Clc1ccc(Cc2nc(-c3cccnc3)no2)cc1	0.7	-2	3%	10	.	.	.	.	-7	-6
CCC(C)(C)c1ccc(OCCCC[n+]2ccccc2)c(C(C)(C)CC)c1	-0.8	58*	-4%	.	30*	1	0	-1.9	.	114*
O=C(O)c1cccc(Cn2c(Cl)c(/C=N/NC(=O)c3ccccc3Cl)sc2=O)c1	0.5	-15	3%	-0.2	.	.	.	.	22	4
C=CCN(CC=C)C(=O)c1cc2ccccc2c(=O)o1	-0.3	-14	.	-5.8	.	.	.	.	-7	0
CCN(CC)C(=O)CC(c1ccc(F)cc1)c1ccco1 (centres undefined)	1.3	4	5%	2.2	.	.	.	.	-8	.
NC(=O)NC(=O)CSc1nc2sc(-c3ccccc3)cc2c(=O)n1-c1ccccc1	0.2	12	-4%	-2.5	-2.6	7	2	-3.0	11	5
COc1ccc2nc(SCC(=O)NCc3ccc(F)cc3)[nH]c2c1	-0.8	-13	.	1.0	-1.5	-15	-19	3.2	3	.
COc1ccc(OCC(=O)Nc2nonc2NC(=O)COc2ccc(OC)cc2)cc1	-1.6	11	3%	-1.1	-0.3	4	2	0.1	-1	.
COc1ccc(N2CCN(CCNC(=O)c3ccc(NC(=O)C4CCCO4)cc3)CC2)cc1 (centres undefined)	0.6	-11	-3%	-2.0	.	.	.	.	-3	12
C#CCSc1nnc(CNS(=O)(=O)c2ccc(Br)cc2)n1C	1.3	-33	.	0.0	1.9	10	8	-0.5	-17	-11
CCN(CC)CCNC(=O)C1(O)c2cc(Br)ccc2NC(=O)N1c1c(F)cccc1F (centres undefined)	0.0	-7	21%	-2.0	0.5	1	-17	-1.2	-6	-4
Cc1ccc(C(=O)NCc2ccc(F)cc2)cc1NC1=NC2CS(=O)(=O)CC2S1 (centres undefined)	0.2	-2	.	1.2	-7.8	-2	5	2.0	-7	-1
CC(=O)Oc1ccc(N2C(=O)C3C4C=CC(CC4)C3C2=O)cc1[N+](=O)[O-] (centres undefined)	0.9	-10	.	3.1	-2.0	2	4	-0.8	27	-4
COc1cc(/C=C2/C(=O)ON=C2C)ccc1OCc1cccc(F)c1	-1.9	0	-3%	-2.9	-2.0	-8	-5	-0.4	0	-1
COc1cccc(C(=O)NCCC2=CCCCC2)c1	0.0	2	8%	3.8	.	.	.	.	-8	5
Cc1cccc(Cn2cnc3c(sc4nc(C)cc(C)c43)c2=O)c1	-0.5	11	.	1.6	0.1	2	7	1.8	-4	-8
O=C(Nc1ccc(O)cc1C(=O)O)c1cccs1	-4.9	-11	.	3.4	1.0	21	16	1.8	-1	2
COc1ccc(Cc2noc(CN3CCC(c4ccncc4)CC3)n2)cc1OC	0.2	14	-3%	?	.	11	4	-4.1	7	34
CCc1c(C(=O)NCc2ccc3c(c2)OCO3)[nH]c(C)c1C(C)=O	0.3	6	4%	-1.9	.	.	.	.	3	-1
Cc1ccc(N2CCN(C(=O)c3ccccc3F)CC2)c(C)c1	0.0	23	-2%	?	-5.4	-4	-66	-10	0	-4
CCOC(=O)Cc1csc(NC(=O)CC)n1	0.4	10	-1%	5.0	.	4	6	2.2	?	-1
COC(=O)c1ccc(C2C(C(C)=O)=C(O)C(=O)N2CCO)cc1 (centres undefined)	-1.5	-20	?	-0.5	.	.	.	.	-4	1
O=C(CCN1CCN(S(=O)(=O)c2ccc(Cl)cc2)CC1)Nc1ccccc1F	1.3	12	-2%	-3.6	3.0	16	14	-0.2	-25	0
COc1ccc(C2CC(c3c(-c4ccccc4)c4cc(Cl)ccc4[nH]c3=O)=NN2C(=O)CCC(=O)O)cc1 (centres undefined)	0.1	-7	4%	0.1	6.7	2	0	-1.2	14	-7
Cc1cc(C(N)=O)nn1-c1c(Cl)cc(Cl)cc1Cl	-0.1	-30	-2%	5.9	-7.5	-31*	1.5*	-2.3*	4	-8

Next results
SMILES	Bfl-1 A1 inh	T cruzi inh	Vif TR-FRET	RanGTP-Impb inh	AF4-AF9 inh	rRNA inh HTS	rRNA inh HTS OD600	rRNA inh HTS RFP	Calb FLC	Beta cell apopt
Cc1ccc(-c2noc(CN3CCCCC3)n2)cc1	0.5	-5	0%	-0.2	.	.	.	.	?	-9
O=Cc1c(NCc2ccco2)nc2ccccn2c1=O	-0.4	10	-1%	0.9	1.1	-1	-6	-8.9	9	-5
Cc1cccc(C)c1NC(=O)C(=O)NCCOc1ccc(Cl)cc1	0.9	0	2%	5.6	.	.	.	.	-14	-3
COc1cc(C(=O)OCC(=O)N(C)C)cc(NC(=O)c2ccco2)c1OC	0.4	-4	5%	-2.2	.	.	.	.	0	.
CC(C)CNC(=O)/C=C/C(=O)O	-0.7	-16	-2%&-1%	1.1	-1.3	21	10	-0.2	?	-4
COC(=O)C(=N/Nc1ccccc1C(=O)OC)/C(C)=N/O	0.5	10	0%	0.5	-0.9	7	13	4.1	0	-1
CCc1cccc(CC)c1NC(=O)CO/N=C(\N)CC(=O)NC1CCCCC1	-0.6	0	26%	-4.3	1.6	5	2	-0.7	2	9
CCOC(=O)c1[nH]c(C)c(C(=O)Nc2ccccc2C)c1C	0.1	-71	?	0.2	-3.9	-7	-3	-2.7	0	18
CSc1ncc(Cl)c(C(=O)Nc2ccc(NC(C)=O)cc2)n1	1.0	1	-4%	2.1	0.3	1	-5	-4.9	-4	-3
CN(C)CCCOC(=O)C1c2ccccc2Oc2ccccc21	-0.3	-5	31%	1.0	.	.	.	.	-11	3
O=C(COC(=O)c1cc2ccccc2oc1=O)c1cccc([N+](=O)[O-])c1	-0.4	-1	0%	-1.1	.	.	.	.	-2	1
CC(=O)Nc1ccc(SCC(=O)c2cc(C)n(-c3ccccc3)c2C)cc1	-0.8	-7	22%	4.0	.	.	.	.	-31	-1
CCCCn1c(N)c(N(CC(C)C)C(=O)C2CCN(S(=O)(=O)c3ccc(Cl)cc3)CC2)c(=O)[nH]c1=O	0.8	7	-1%	3.3	5.3	5	13	-1.5	7	0
O=S(=O)(NC(=NCc1ccccc1)c1ccccc1F)c1ccccc1	-0.4	-14	.	2.1	0.7	-9	-12	4.5	18	-3
CCC(C)(C)NC(=O)C(c1ccccc1)N(Cc1cccs1)C(=O)Cn1nnc2ccccc21 (centres undefined)	-0.3	12	-1%	-2.5	.	.	.	.	-3	13
Cc1cccc(-n2c(-c3ccc(Br)o3)n[nH]c2=S)c1	0.8	18	.	-1.0	.	-20*	-6.3*	3.4*	-2	0
